Compound activity (PubChem)
PD-1 reversal – activators reversing PD-1 mediated T-cell inhibition, primary screen, luminescence, primary human CD4 T cells, PD-L1 beads; CellTiter-Glo 96 h; activation, % (concentration not given with the values); 29,000 tested, under 10 active; AID 2316, 2010;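 active = replicate mean of 50% or more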;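 note: 0% = median vehicle wells and 100% = positive control; 100 nL library stock added to about 50 µL; numbers are from one replicate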
Hedgehog inh – Hedgehog pathway signaling inhibitors, primary screen, luminescence, Shh-LIGHT2 cells, Gli-luciferase; Shh-LIGHT2 Gli-luciferase reporter, 30 h; inhibition, % (test concentration not listed); 22,000 tested, 2.1% active;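 active = replicate mean of 65% or more; inconclusive = mean lower but half the replicates past it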;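 note: pathway switched on by Shh-conditioned medium diluted 1 in 25 in low serum; 100 nL library stock added to about 40 µL; 0% = median of neutral wells and 100% = positive control level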
MITF inh – inhibitors of MITF, primary screen, MITF inhibitor project, cell-based, luminescence. TRPM1 promoter luciferase, 24 h. inhibition, % (concentration not given with the values). 37,000 tested, 0.28% active. AID 2240, 2010;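 active = most replicates at 85% or more, or half of them and the mean; inconclusive = half reach 85% but not the mean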;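 note: human melanocyte line stably carrying TRPM1 promoter luciferase reporter; 0% = vehicle wells and 100% = a positive control; the first replicate is given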
YB-1 expression – inhibitors of YB-1 gene expression, primary screen, cell-based, fluorescence; U2OS, qRT-PCR YB-1 vs CDIP delta delta Cp, 16 h; hits give high values; zero = DMSO, each unit about twofold; delta delta Cp (YB-1 minus CDIP) (no concentration beside the values); 30,000 tested, 0.37% active;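 active = delta delta Cp rounded down to an integer at or above 3, about 3 SD of DMSO wells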;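 note: higher means less YB-1 transcript or more CDIP transcript relative to DMSO; stock transfer was 100 nL into about 100 µL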
Starred values were filed as active, the others as inactive; ? = inconclusive; nt = no result given. An excerpt; count on the stated rates, not on these rows.

The opening 5 compounds as a preview:
SMILES | PD-1 reversal | Hedgehog inh | MITF inh | YB-1 expression
C[C@@H]1CN([C@H](C)CO)C(=O)c2cc(NC(=O)CCCCCC(=O)Nc3ccccc3N)ccc2O[C@@H]1CN(C)S(=O)(=O)c1cn(C)cn1 | 1.9 | nt | -10 | -0.05
O=C1c2cccc3cccc(c23)C(=O)N1CC1CCN(CC(O)COc2c(F)cc(Br)cc2F)CC1 (stereo not drawn) | -3.6 | nt | 21 | nt
CCOC(=O)c1c(NC(=O)COc2ccccc2Br)sc(C)c1C | 0.1 | nt | -7 | nt
C[C@@H]1CN([C@@H](C)CO)C(=O)c2cc(NC(=O)c3ccncc3)ccc2O[C@H]1CN(C)C(=O)Nc1ccc2c(c1)OCO2 | 0.5 | 1 | -9 | 0.082
COc1ccc(NC(=O)CCCN2C(=O)c3ccccc3C2=O)cc1Cl | 3.4 | nt | -35 | nt

The listing, repeating the preview:
SMILES | PD-1 reversal | Hedgehog inh | MITF inh | YB-1 expression
C[C@@H]1CN([C@H](C)CO)C(=O)c2cc(NC(=O)CCCCCC(=O)Nc3ccccc3N)ccc2O[C@@H]1CN(C)S(=O)(=O)c1cn(C)cn1 | 1.9 | nt | -10 | -0.05
O=C1c2cccc3cccc(c23)C(=O)N1CC1CCN(CC(O)COc2c(F)cc(Br)cc2F)CC1 (stereo not drawn) | -3.6 | nt | 21 | nt
CCOC(=O)c1c(NC(=O)COc2ccccc2Br)sc(C)c1C | 0.1 | nt | -7 | nt
C[C@@H]1CN([C@@H](C)CO)C(=O)c2cc(NC(=O)c3ccncc3)ccc2O[C@H]1CN(C)C(=O)Nc1ccc2c(c1)OCO2 | 0.5 | 1 | -9 | 0.082
COc1ccc(NC(=O)CCCN2C(=O)c3ccccc3C2=O)cc1Cl | 3.4 | nt | -35 | nt
C[C@@H]1CN([C@@H](C)CO)C(=O)Cc2cc(NC(=O)Nc3ccc(F)cc3)ccc2O[C@@H]1CN(C)Cc1ccc(-c2ccccc2)cc1 | -0.8 | 26 | 13 | -0.12
COc1ccc(NC(=O)N(C)C[C@@H]2Oc3c(NC(=O)C4CCCCC4)cccc3C(=O)N([C@H](C)CO)C[C@@H]2C)cc1 | -1.3 | 1 | -1 | 0.22
Cc1ccc(S(=O)(=O)Nc2ccc3c(c2)C(=O)N([C@H](C)CO)C[C@H](C)[C@@H](CN(C)S(=O)(=O)c2ccc(F)cc2)OCCCC[C@@H](C)O3)cc1 | nt | 14 | 13 | -0.19
Cc1noc(C)c1NC(=O)Nc1cccc2c1O[C@H](CN(C)S(=O)(=O)c1ccc(F)cc1)[C@@H](C)CN([C@H](C)CO)C2=O | 0.6 | ? | -6 | 0.23
CC(=O)OC[C@]12[C@H](OC(C)=O)[C@@H](OC(C)=O)[C@@H]3[C@@H](OC(C)=O)[C@@]14O[C@@]3(C)COC(=O)c1cccnc1[C@H](C)[C@@H](C)C(=O)O[C@@H]([C@H](O)[C@@H]2OC(=O)c1ccccc1)[C@]4(C)O | nt | -21 | nt | 1.4
C[C@H](CO)N1C[C@H](C)[C@H](CN(C)S(=O)(=O)c2ccc(Cl)cc2)Oc2c(NS(=O)(=O)c3ccc(F)cc3)cccc2C1=O | nt | 70* | 7 | -0.11
COc1ccc(S(=O)(=O)N(C)C[C@@H]2Oc3ccc(NC(=O)Nc4ccc5c(c4)OCO5)cc3CC(=O)N([C@H](C)CO)C[C@@H]2C)cc1 | 0.5 | -27 | 34 | -0.094
CC1(C)CC(n2c(SCC(N)=O)nc3c(c2=O)C2(CCCC2)Cc2ccccc2-3)CCO1 (stereo not drawn) | -4.5 | nt | 18 | nt
C[C@H](CO)N1C[C@H](C)[C@@H](CN(C)Cc2ccc3c(c2)OCO3)Oc2c(NS(=O)(=O)c3ccc(F)cc3)cccc2C1=O | -0.1 | -29 | -13 | -0.023
COc1cc(OC)cc(OCC(O)Cn2cnc3ccccc32)c1 (stereo not drawn) | 1.5 | nt | 12 | nt
C[C@H](CO)N1C[C@H](C)[C@@H](CN(C)Cc2ccc(Cl)c(Cl)c2)Oc2c(NS(=O)(=O)c3ccc(F)cc3)cccc2C1=O | nt | 22 | -21 | -0.11
CNCC(O)Cn1c2ccccc2c2ccccc21 (stereo not drawn) | -1.4 | nt | -17 | nt
C=C1C(=O)O[C@H]2C(=C)[C@@H](CCC(=O)O)[C@@H](C)CC[C@@H]12 | -7.4 | 18 | 21 | -0.065
Cn1c(SCC(=O)NC23CC4CC(CC(C4)C2)C3)nnc1-c1cccc([N+](=O)[O-])c1 | 0.1 | nt | 1 | nt
Cc1cc(C(F)(F)F)nc(SCC(=O)c2cccc([N+](=O)[O-])c2)n1 | 2.8 | nt | -47 | nt
COc1ccc(C)cc1S(=O)(=O)N(CC(N)=O)c1ccc(Cl)cc1 | 1.4 | nt | 0 | nt
S=C(NC1CCCCC1)N1CCC(C2C=NC=N2)CC1 (stereo not drawn) | 5.6 | 15 | -1 | 2.8
COc1ccccc1-n1c(N)cc(=O)nc1SCC(=O)Nc1ccc(Br)cc1 | 1.2 | nt | -6 | nt
COc1ccc(S(=O)(=O)N2CCOCC2)cc1C(=O)Nc1ccc(S(=O)(=O)C(F)F)cc1 | 2.6 | nt | -1 | nt
C[C@H]1CN([C@@H](C)CO)C(=O)c2cccc(NC(=O)c3nc4ccccc4s3)c2O[C@@H]1CN(C)C(=O)Nc1ccc2c(c1)OCO2 | 0.0 | 26 | -2 | 0.96
COc1ccc(S(=O)(=O)N(C)C[C@@H]2Oc3ccc(NC(=O)Nc4c(C)noc4C)cc3CC(=O)N([C@@H](C)CO)C[C@@H]2C)cc1 | nt | -15 | -2 | 0.16
C[C@@H]1CN([C@@H](C)CO)C(=O)c2cccc(NS(=O)(=O)c3cn(C)cn3)c2O[C@H]1CN(C)C | nt | -5 | -11 | -0.052
Cc1noc(C)c1S(=O)(=O)Nc1cccc2c1O[C@H](CN(C)C)[C@H](C)CN([C@@H](C)CO)C2=O | 1.3 | 7 | 1 | 0.5
C[C@@H]1CN([C@@H](C)CO)C(=O)c2cc(NS(=O)(=O)c3ccc(Cl)cc3)ccc2O[C@H]1CN(C)C | -0.2 | nt | -5 | 0.026
Cc1ccc(OCC(=O)Nc2cc(-c3nc4ccc(C)cc4o3)ccc2Cl)c(C)c1 | 3.9 | nt | -53 | nt
Cc1cc(C)nc(N/C(=N/S(=O)(=O)c2ccc(Br)cc2)N2CCC(C)CC2)n1 | -0.9 | -5 | -8 | -0.31
C[C@H](CO)N1C[C@H](C)[C@H](CN(C)C(=O)Nc2ccc(C(F)(F)F)cc2)Oc2c(NC(=O)Nc3ccc4c(c3)OCO4)cccc2C1=O | -5.9 | -9 | 31 | 0.15
C[C@H]1CN([C@@H](C)CO)C(=O)Cc2cc(NC(=O)Nc3cccc4ccccc34)ccc2O[C@@H]1CN(C)S(=O)(=O)c1ccc(F)cc1 | 1.9 | 15 | -2 | -0.23
COc1ccc(NC(=O)Nc2ccc3c(c2)CC(=O)N([C@@H](C)CO)C[C@H](C)[C@H](CN(C)Cc2ccc(Oc4ccccc4)cc2)O3)cc1 | nt | -11 | 5 | 0.69
C[C@@H]1CN([C@H](C)CO)C(=O)Cc2cc(NC(=O)Nc3ccc(C(F)(F)F)cc3)ccc2O[C@@H]1CN(C)Cc1ccc(C(=O)O)cc1 | 0.2 | nt | -6 | -0.095
COC(=O)c1ccccc1NC(=O)COc1ccc(Br)cc1C | -0.1 | nt | -38 | nt
COc1cccc(C2CC(C(F)(F)F)n3ncc(C(=O)NCc4cccnc4)c3N2)c1 (stereo not drawn) | -0.4 | nt | 0 | nt
Cn1c(SCC(=O)c2ccc([N+](=O)[O-])cc2)nnc1-c1cccnc1 | -0.3 | nt | -10 | nt
C[C@H](CO)N1C[C@H](C)[C@H](CN(C)C(=O)Nc2ccc3c(c2)OCO3)Oc2ccc(NC(=O)NC3CCCCC3)cc2C1=O | nt | -36 | -7 | -0.035
Cc1ccc(S(=O)(=O)N(C)C[C@@H]2Oc3c(NC(=O)Nc4ccccc4)cccc3C(=O)N([C@@H](C)CO)C[C@@H]2C)cc1 | -1.1 | 107* | 10 | 0.18

Quoted from the listing.
CC(=O)OC[C@]12[C@H](OC(C)=O)[C@@H](OC(C)=O)[C@@H]3[C@@H](OC(C)=O)[C@@]14O[C@@]3(C)COC(=O)c1cccnc1[C@H](C)[C@@H](C)C(=O)O[C@@H]([C@H](O)[C@@H]2OC(=O)c1ccccc1)[C@]4(C)O – Hedgehog inh = -21
Cc1ccc(S(=O)(=O)Nc2ccc3c(c2)C(=O)N([C@H](C)CO)C[C@H](C)[C@@H](CN(C)S(=O)(=O)c2ccc(F)cc2)OCCCC[C@@H](C)O3)cc1 – Hedgehog inh = 14
Cc1ccc(OCC(=O)Nc2cc(-c3nc4ccc(C)cc4o3)ccc2Cl)c(C)c1 – PD-1 reversal = 3.9

(cont.)
SMILES | PD-1 reversal | Hedgehog inh | MITF inh | YB-1 expression
O=c1onc(-c2cccc(Cl)c2)n1-c1ccccc1 | -0.3 | -28 | -6 | -0.31
C[C@@H]1CN([C@@H](C)CO)C(=O)c2cccc(NC(=O)c3cnccn3)c2O[C@H]1CN(C)S(=O)(=O)c1cn(C)cn1 | nt | 10 | 3 | 0.57
C[C@H](CO)N1C[C@H](C)[C@H](CN(C)Cc2ccncc2)Oc2ccc(NS(=O)(=O)c3cn(C)cn3)cc2C1=O | 1.5 | -4 | -13 | -0.24
COc1cccc(C(=O)Nc2ccc(NC(=O)C3C4C=CC(C4)C3C(=O)O)cc2)c1 (stereo not drawn) | -0.4 | nt | 27 | nt
CCc1ccc(C(=O)CC2OC(=O)c3c2ccc(OC)c3OC)cc1 (stereo not drawn) | -1.3 | -7 | -13 | 0.4
CCOc1ccc(NC(=O)CSc2ncccn2)cc1 | 2.5 | nt | -98 | nt
C=C1C(=O)O[C@@H]2C[C@@]3(C)CC(=O)C=C(C)C3C[C@H]12 (stereo partly drawn) | -6.4 | 51 | 1 | -0.32
Cc1ccc(NC(=O)CSc2nc(O)c(C)c(=O)n2-c2ccccc2F)c(C)c1 | 2.0 | nt | 1 | nt
C[C@H](CO)N1C[C@H](C)[C@H](CN(C)Cc2ccc(Cl)c(Cl)c2)Oc2c(NC(=O)c3cnccn3)cccc2C1=O | -4.4 | 30 | -38 | -0.25
COc1ccc(S(=O)(=O)Nc2ccc3c(c2)C(=O)N([C@@H](C)CO)C[C@@H](C)[C@@H](CN(C)Cc2ccc(C(=O)Nc4ccccc4N)cc2)O3)cc1 | 0.3 | nt | 17 | -0.74
C[C@H]1CN([C@@H](C)CO)C(=O)Cc2cc(NS(=O)(=O)c3ccc(F)cc3)ccc2O[C@@H]1CN(C)Cc1ccncc1 | nt | -22 | 0 | 0.23
CCn1ccc(CNC(=O)Nc2cccc(C(F)(F)F)c2)n1 | 1.0 | nt | -19 | nt
C[C@H](CO)N1C[C@H](C)[C@@H](CN(C)S(=O)(=O)c2cccs2)Oc2c(NS(=O)(=O)c3ccccc3)cccc2C1=O | nt | 34 | -6 | -0.22
C[C@@H]1CCCCO[C@H](CN(C)Cc2ccc(Cl)c(Cl)c2)[C@@H](C)CN([C@H](C)CO)C(=O)c2cc(N(C)C)ccc2O1 | -4.9 | 26 | 24 | 0.4
C[C@H](CO)N1C[C@H](C)[C@@H](CN(C)C(=O)Nc2ccc(F)cc2)Oc2ccc(NC(=O)Nc3ccc(F)cc3)cc2C1=O | nt | 6 | -4 | 0.038
CCOc1ccc(-c2nc(SCc3ccc(C(=O)OC)o3)n[nH]2)cc1 | 0.2 | nt | -29 | nt
Cc1ccc2nc(C)c3c(c2c1)N(c1ccccc1)CC3 | -3.6 | 35 | -2 | -0.059
COC(=O)c1sccc1NC(=O)CSc1nnnn1-c1ccccc1F | -1.4 | nt | -4 | nt
CC(C)Oc1ccc2c(=O)cc(-c3ccccc3)oc2c1 | nt | 42 | 71 | 0.11
COc1ccc(OC)c(S(=O)(=O)NCCO)c1 | 2.3 | nt | -4 | nt
COc1ccc(S(=O)(=O)Nc2ccc3c(c2)C(=O)N([C@H](C)CO)C[C@@H](C)[C@H](CN(C)C(=O)Nc2ccc(F)cc2)O3)cc1 | 0.1 | -22 | 8 | -0.42
O=C(COc1ccc([N+](=O)[O-])cc1)Nc1ccccc1OC(F)F | 0.4 | nt | -9 | nt
C[C@@H]1CN([C@@H](C)CO)C(=O)Cc2cc(NS(=O)(=O)c3ccccc3)ccc2O[C@@H]1CN(C)S(=O)(=O)c1cccs1 | -1.5 | 19 | 17 | 0.0073
COc1ccccc1OCC(=O)Nc1cc(Cl)ccc1O | -7.4 | nt | 36 | nt
C[C@H](CO)N1C[C@H](C)[C@H](CN(C)S(=O)(=O)c2ccc(F)cc2)Oc2c(NS(=O)(=O)c3cccs3)cccc2C1=O | nt | 37 | -2 | 0.11
COc1cc2c(c3c1C(=O)C[C@H](c1ccccc1)O3)C=CC(C)(C)O2 | nt | -25 | nt | 0.23
O=C(Cn1cc(C(=O)c2ccccc2)c2ccccc21)Nc1ccc(Cl)cc1 | -3.5 | nt | 71 | nt
COc1ccc(NC(=O)N(C)C[C@@H]2Oc3c(NC(=O)Nc4ccc(C(F)(F)F)cc4)cccc3C(=O)N([C@H](C)CO)C[C@H]2C)cc1 | -6.2 | -22 | 38 | 0.1
